Bioassay records from PubChem.
StopGo reporter: lowers the luciferase signal of an FMDV 2A StopGo reporter; human cells with a luciferase reporter of 2A StopGo recoding; control for the full effect not named in the record; Potency, µM (doses to about 57.9 µM), for inactives: at the highest dose signal change, negative = less light; AID 1159524; 1.2% of 410,000 active; active = well fitted falling curve with a large enough effect; inconclusive = small, poorly fitted or top-dose-only effect; inactive = no such curve, though single readings can be large or run the other way; tested in HEK293T cells; note: % is set by controls: 0 for no effect and ±100 for the full control effect; nearly all actives have a fitted effect of over 45% in size; luciferase light after 4 h
SARS PLP yeast: blocks SARS-CoV papain-like protease in a yeast assay | 0.19% of 330,000 active | S. cerevisiae expressing SARS-CoV PLpro, growth rescue; control for the full effect not named in the record | Potency, µM (highest dose often 32.9 µM), without a hit: at the highest dose activity, positive = growth rescue | AID 485353; active means well fitted rising curve with a large enough effect; inconclusive means small, poorly fitted or top-dose-only effect; inactive means no such curve, though single readings can be large or run the other way; note: 0% is about no effect; nearly all actives have a fitted effect of over 55% in size; growth read by luminescence after 48 h
Cruzain noTriton: cruzain (T. cruzi) inhibition without detergent | purified cruzain, Z-FR-AMC fluorescence, no detergent | Potency, µM, for the others: max response, negative = inhibition, usual class: inhibitors | 2.3% of 200,000 active | AID 1476;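 note: plate controls were enzyme without inhibitor for no effect and buffer without enzyme for full effect; nearly all actives have a fitted effect of over 40% in size; top concentration of the series not given in the record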
Target sequence (P25779 123-467 limits assumed): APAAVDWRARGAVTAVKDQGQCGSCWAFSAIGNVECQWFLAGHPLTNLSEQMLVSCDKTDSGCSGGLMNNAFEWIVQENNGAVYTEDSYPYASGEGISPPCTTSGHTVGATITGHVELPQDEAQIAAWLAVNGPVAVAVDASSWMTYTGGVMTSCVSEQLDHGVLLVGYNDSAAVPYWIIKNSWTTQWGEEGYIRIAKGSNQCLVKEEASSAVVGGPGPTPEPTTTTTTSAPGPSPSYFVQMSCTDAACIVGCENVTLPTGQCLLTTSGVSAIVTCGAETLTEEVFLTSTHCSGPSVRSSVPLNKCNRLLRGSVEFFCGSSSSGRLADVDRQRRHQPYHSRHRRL
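Purified cruzain at 1.5 nM, pre-incubated 15 min with compound at room temperature in 100 mM sodium acetate pH 5.5, 5 mM DTT, 0.00005% Triton X-100. Reaction started with 2 uM Z-FR-AMC; AMC fluorescence increase over 60 s gives rate.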
LASV entry inh: inhibitors of Lassa virus binding or cell entry; Lassa virus pseudotype entry inhibition, cell reporter; control for the full effect not named in the record; Potency, µM (series often up to 37.9 µM), for the others: top-dose activity change, negative = inhibition, hits mostly inhibitors; 1.2% of 300,000 active; active means well fitted inhibition curve with a large enough effect; inconclusive means small, poorly fitted or top-dose-only effect, or effect the other way; inactive means flat fitted curve, though single readings scatter; tested in HEK293 cells; note: % is set by controls: 0 for no effect and ±100 for the full control effect; nearly all actives have a fitted effect of over 50% in size; luciferase read-out
RE007 growth inh: less growth of the S. pombe RE007 Vpr strain; S. pombe RE007 Vpr strain, BacTiter-Glo ATP luminescence, 24 h; control for the full effect not named in the record; Potency, µM (series often up to 92.2 µM), without a hit: at the highest dose activity change, negative = less growth; 0.21% of 360,000 active; active = well fitted falling curve with a large enough effect; inconclusive = small, poorly fitted or top-dose-only effect; inactive = no such curve, though single readings can be large or run the other way;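 note: % is set by controls: 0 for no effect and ±100 for the full control effect; nearly all actives have a fitted effect of over 50% in size; the assay follows cell death caused by Vpr and the record does not say whether a fall means rescue or toxicity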
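Fission yeast RE007 carrying one integrated HIV-1 vpr copy, seeded at OD 0.01 in PMG+AL medium with 23 nL pinned compound. Grown 24 h at 30 degrees; viability read by BacTiter-Glo luminescence after 5 min.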
NS1 function inh: influenza NS1 inhibition. Potency, µM (highest dose often 46.1 µM), for the others: at the highest dose activity, positive = more growth. AID 2326. S. cerevisiae slowed by influenza A NS1, growth recovery by OD600. 0.4% of 270,000 active; active means well fitted rising curve with a large enough effect; inconclusive means small, poorly fitted or top-dose-only effect; inactive means no such curve, though single readings can be large or run the other way; note: nearly all actives have a fitted effect of over 50% in size
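Recovery from NS1-induced slow growth read by OD600 in budding yeast switched to galactose assay medium (pH 6.0, -URA) at 1:100 dilution. Compound 23 nl per well; the matching strain lacking NS1 serves as control.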
MARV entry inh: inhibitors of Marburg virus binding or cell entry; Marburg virus pseudotyped entry inhibition, cell reporter; control for the full effect not named in the record; about a third of the inactives were read at about 46 µM; Potency, µM (titrated, usually from 37.8 µM), for inactives: top-dose activity change, negative = inhibition, hits mostly inhibitors; 1.8% of 300,000 active; active = well fitted inhibition curve with a large enough effect; inconclusive = small, poorly fitted or top-dose-only effect, or effect the other way; inactive = flat fitted curve, though single readings scatter; tested in HEK293 cells; about a fifth of its hits are not listed in these tables; note: % is set by controls: 0 for no effect and ±100 for the full control effect; luciferase read-out
Cruzain Triton: cruzain (T. cruzi) inhibition with detergent | purified cruzain, Z-FR-AMC fluorescence, 0.01% Triton | P25779 | 0.43% of 200,000 active | AID 1478 | Potency, µM, inactives show max response, negative = inhibition, actives largely listed as inhibitors;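 note: plate controls were neutral wells for no effect and buffer without enzyme for full effect; nearly all actives have a fitted effect of over 40% in size; top concentration of the series not given in the record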
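Z-FR-AMC hydrolysis (2 uM substrate) by cruzain (1.5 nM) monitored kinetically at ex 360/em 450 nm after 15 min room-temperature compound exposure; 0.01% Triton X-100, pH 5.5, 5 mM DTT.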
* = called active by the depositor; ? = inconclusive; nt = not tested or not shown; & = joins results of further samples; [ ] = remark or other dose. Unless noted, calls come from the whole dose curve; as a rule, active = well fitted curve in the direction sought with a large enough effect; inconclusive = small, poorly fitted or top-dose-only effect, or another doubt; inactive = no such curve, though single readings can be large; an effect the other way counts as inactive or inconclusive. Potency is the fitted concentration of half-maximal effect. This is a random part of the collection. About 4.6% of those tested had a hit in this group.

SMILES	StopGo reporter	SARS PLP yeast	Cruzain noTriton	LASV entry inh	RE007 growth inh	NS1 function inh	MARV entry inh	Cruzain Triton
Cc1ccc2c(c1)c1ncnc(N3CCN(c4ccccc4)CC3)c1n2C	20µM*	8%	-19%	?	-19%	-50%	0%	-6.9%
CCCc1[nH]nc2c1C(C1CCCCC1)C(C#N)=C(N)O2 (stereo not given)	?	0%	-5%	nt	5%	-29%	nt	-0.6%
Cc1c(C(=O)OC(C)C)sc(NC(=O)c2cccnc2)c1C#N	-17%	-11%	6%	2%	-15%	-21%	-23%	-6.2%
CC(C)C(c1nnnn1C1CCCCC1)N1CCOCC1 (stereo not given)	8%	-5%	-5%	19%	8%	5%	14%	-0.9%
COc1ccc(CC(=O)OCN2C(=O)c3ccccc3C2=O)cc1OC	-8%	0%	nt	nt	-3%	9%	nt	nt
CN1CCN(C2Cc3ccc(F)cc3Sc3cc(F)c(Cl)cc32)CC1 (stereo not given)	2%	nt	nt	?	-10%	nt	?	nt
OC(CNCc1ccc(Cl)c(Cl)c1)c1ccccc1 (stereo not given)	-9%	0%	nt	-1%[46.1 µM]	-9%	0%	?	nt
CC1(C(=O)OCC(=O)N2c3ccccc3Sc3ccccc32)CC1(Cl)Cl (stereo not given)	-12%	-46%	-6%	nt	10%	-2%	nt	-9.9%
Cc1ccc(NS(=O)(=O)c2cccc(C(=O)NCCCN3CCCC3=O)c2)cc1	27%	-3%	nt	0%	-18%	nt	?	nt
COc1ccc(C(CC(=O)c2ccccc2)S(=O)(=O)c2ccccc2)cc1 (stereo not given)	-16%	-4%	-3%	?	22%	-10%	?	-0.3%
O=C(CC(=O)NC1CCCCC1)N/N=C/c1ccc(Cl)cc1	-9%	4%	?	?	24%	2%	13%	4.0%
Cn1c2c(c(=O)n(C)c1=O)C1c3ccccc3OCC1C(C)(C)O2 (stereo not given)	0%	0%	5%	nt	0%	4%	nt	-1.2%
O=C(CCN1CCOCC1)c1ccc(Cl)cc1	-13%	-3%	nt	?	40µM*	-3%	-5%[46.1 µM]	nt
Cc1ccc(-n2c(C)cc(C(=O)COC(=O)c3ccc[nH]c3=O)c2C)cc1	3%	-11%	-26%	?	nt	-20%	?	-3.4%
O=C(Nn1cnnc1)c1cccc(S(=O)(=O)N2CCOCC2)c1	1%	-1%	nt	?	-5%	nt	14%[46.1 µM]	nt
Cc1ccccc1NC(=O)Cn1nc(-c2ccc(F)cc2)c2cnc3ccccc3c21	9%	nt	23%	6%[46.1 µM]	nt	nt	nt	-2.0%
C/C(=N/NC(=O)CNC(=O)c1ccco1)c1ccc(Cl)cc1	2%	8%	nt	nt	12%	2%	nt	nt
Cc1cccc(NC(=O)C2CCCN(S(=O)(=O)c3c(C)n[nH]c3C)C2)c1 (stereo not given)	-15%	nt	4%	-5%[46.1 µM]	nt	nt	15%[46.1 µM]	-3.6%
Cc1nn(-c2ccccc2)c(/N=C/c2ccccc2O)c1-c1ccccc1	-1%	-18%	?	?	-24%	-10%	?	-4.6%
O=C(Nc1ccccc1N1CCCCC1)c1cc(S(=O)(=O)N2CCOCC2)ccc1F	?	1%	nt	?	-20%	nt	?	nt
O=C(c1cc(F)ccc1F)C1CCCN(C(=O)CCN2CCCCO2)C1 (stereo not given)	8%	1%	nt	-21%	-1%	3%	-28%[46.1 µM]	nt
COc1ccc(C2=CC(=O)OC3(CCCC3)O2)cc1	15%	-5%	0%	?	1%	-47%	16%	-1.2%
CC(C)n1cnc2c(Nc3ccc(C(=O)O)cc3)nc(Cl)nc21	61%[activator]	-1%	nt	nt	7%	6%	nt	nt
C=CCSc1nnc(NC(=O)c2c(CC)noc2C)s1	-5%	1%	nt	?	-7%	nt	-1%[46.1 µM]	nt
CCOc1cc2c(cc1O)C(=NOC)CC1C2CCC2(C)C(O)CCC12 (stereo not given)	1%	nt	nt	?	8%	nt	?	nt

New compounds follow.
SMILES	StopGo reporter	SARS PLP yeast	Cruzain noTriton	LASV entry inh	RE007 growth inh	NS1 function inh	MARV entry inh	Cruzain Triton
O=C(CSc1nc(-c2ccccc2)ns1)N1CCOCC1	31%[activator]	2%	nt	7%[46.1 µM]	-8%	nt	?	nt
O=C1/C(=C\c2ccc(Cl)c(Cl)c2)CN(C(=O)CCN2CCOCC2)C/C1=C/c1ccc(Cl)c(Cl)c1	3.2µM*	nt	nt	?	?	nt	?	nt
CCN(CC)c1ccc2cc(C(N)=O)c(=O)oc2c1	nt	-2%	-5%	10%	9%	-14%	4%	-10%
Cc1nn(S(=O)(=O)c2ccc(Cl)cc2)c(C)c1Sc1ccc([N+](=O)[O-])cc1	?	-11%	?	?	13%	7%	?	-4.1%
N#Cc1cnn2ccn(C3OC(CO)C(O)C3O)c12 (stereo not given)	-14%	2%	nt	nt	2%	-2%	nt	nt
COC(=O)c1cnc(N2CCN(c3ccc(OC)cc3)CC2)c2ccccc12	?	nt	-9%	-19%[46.1 µM]	nt	nt	nt	-1.8%
CCOc1cc(NC(=S)NC)c(OCC)cc1NC(=O)c1cccs1	-18%	-4%	nt	nt	5%	?	-6%	nt
CC(C)C(c1nnnn1Cc1ccccc1)N1CCN(Cc2ccc3c(c2)OCO3)CC1 (stereo not given)	0%	-2%	-1%	-17%	-11%	-2%	-8%	2.0%
Cc1ccc(NC(=O)COC(=O)c2ccc3c(c2)NC(=O)C2CCCN32)cc1 (stereo not given)	-11%	-9%	-14%	1%	-10%	6%	-22%&-22%	-13%
O=C(NC1CCCCC1)C(c1cccnc1)N(C(=O)c1csnn1)c1ccccc1 (stereo not given)	-9%	0%	nt	-1%[46.1 µM]	8%	-1%	-1%[46.1 µM]	nt
Cc1cc(SCC(=O)OCC(=O)N2CCCC2=O)c(C)cc1Br	-2%	3%	nt	?	-12%	nt	3%	nt
Nc1c(C(=O)Nc2ccc(Br)cc2F)sc2nc3c(cc12)N1CCC3CC1	?	nt	-10%	-8%[46.1 µM]	nt	nt	4%[46.1 µM]	-0.5%
Cc1ccc(NC2c3ncccc3C(=O)N2Cc2cccs2)cc1 (stereo not given)	3%	1%	nt	-2%	9%	nt	-12%[46.1 µM]	nt
CCOC(=O)C1CCN(Cc2coc3ccc(Cl)cc3c2=O)CC1	-7%	1%	0%	-4%	-11%	-11%	11%	1.9%
CCc1c(C)nc(N)n2c(SCC(=O)N3CCCc4ccccc43)nnc12	-10%	2%	1%	0%	6%	?	-4%	3.6%
Cc1cnc(NC(=O)CSCc2c(C)noc2C)s1	18%	1%	nt	?	5%	nt	5%	nt
CCN(c1ccc(OC)cc1)S(=O)(=O)N1CCCC(C(=O)NCc2cccc(C)c2)C1 (stereo not given)	-16%	-1%	nt	nt	3%	-16%	nt	nt
CNC(=O)C1CCC(Cn2c(=O)c3sccc3n(CC(=O)N3CCC(C)CC3)c2=O)CC1 (stereo not given)	-6%	nt	1%	-10%[46.1 µM]	nt	nt	nt	-0.5%
CCN1CCN(CC(=O)N2N=C(c3cccs3)CC2c2ccc(C)cc2)C(=O)C1=O (stereo not given)	31%[activator]	-1%	nt	3%	5%	-8%	7%	nt
CC(C)c1ccc(NC(=O)CN2C(=O)NC3(CCCCCCC3)C2=O)cc1	-27%	-19%	nt	-18%	-15%	nt	-21%	nt
COc1ccc(N2CCN(C(=O)CSc3ncnc4c3cnn4-c3ccc(OC)cc3)CC2)cc1	?	0%	-12%	7%	15%	6%	0%	3.9%
O=C(NCc1ccncc1)C12CC3CC(CC(Cl)(C3)C1)C2	-4%	-1%	nt	nt	1%	5%	-27%[46.1 µM]	nt
Cc1nn(-c2nc3ccccc3[nH]2)c(N)c1-c1ccccc1	-14%	-106%	8%	?	28µM*	-6%	?	-7.1%
CCCc1c(C(=O)N/N=C/c2ccccc2C(F)(F)F)nnn1-c1nonc1N	-20%	-3%	nt	nt	-3%	-4%	nt	nt
CCc1ccccc1NC(=O)Cn1nc(N2CCN(c3ccccc3OC)CC2)ccc1=O	?	nt	?	0%[46.1 µM]	nt	nt	nt	-1.9%

Next entries follow:
SMILES	StopGo reporter	SARS PLP yeast	Cruzain noTriton	LASV entry inh	RE007 growth inh	NS1 function inh	MARV entry inh	Cruzain Triton
Cc1ccc2c(c1)N(C(=O)CCC(=O)NCCCN1CCN(C)CC1)CC(C)O2 (stereo not given)	-11%	0%	nt	nt	-7%	1%	nt	nt
O=c1c2ccccc2nc(CSc2nnnn2-c2ccccc2)n1-c1cccc(C(F)(F)F)c1	16%	-9%	-7%	7%	6%	0%	0%	1.9%
COc1ccccc1NS(=O)(=O)c1cc(NC(=O)C2CCCC2)ccc1N1CCOCC1	71%[activator]	0%	nt	?	-22%	nt	?	nt
Cc1c(C)c2ccc(OCC(=O)c3ccccc3)cc2oc1=O	60%[activator]	0%	nt	nt	1%	-3%	nt	nt
O=C(NCc1ccccc1Cl)NCc1noc2ccccc12	27%	nt	-1%	-20%[46.1 µM]	nt	nt	nt	-1.6%
Nc1nonc1-c1nc2ccccc2n1Cc1ccc(Cl)cc1	-9%	1%	5%	-16%	1%	-2%	8%	-4.0%
N#Cc1ccccc1Cn1c(=O)n(CCCC(=O)NCc2ccc3c(c2)OCO3)c(=O)c2sccc21	-9%	nt	-21%	-8%[46.1 µM]	nt	nt	8%[46.1 µM]	0.8%
COc1ccccc1N1C(=NC(=O)CCC2CCCC2)SC2CS(=O)(=O)CC21 (stereo not given)	2%	13%	nt	1%[46.1 µM]	6%	16%	6%[46.1 µM]	nt
CCOC(=O)c1cc2c(=O)n3ccccc3nc2n(C(C)C)c1=NC(=O)C(C)(C)Oc1ccc(Cl)cc1	-18%	nt	1%	4%[46.1 µM]	nt	nt	-2%[46.1 µM]	-0.7%
O=C(CN1CCCC1)Nc1ccc([N+](=O)[O-])cc1Cl	12%	0%	nt	-4%[46.1 µM]	13%	nt	10%[46.1 µM]	nt
CCN(CC)C(=O)c1sc2c(c1C)c(=O)n(Cc1ccccc1)c(=O)n2Cc1cc(C)ccc1C	0%	nt	?	?	nt	nt	nt	0.0%
Cc1cccc2sc(NC(=O)c3cc(S(=O)(=O)N(C)C)ccc3N3CCCC3)nc12	-21%	0%	nt	?	4%	3%	?	nt
